High-throughput results deposited in PubChem by Fisher Drug Discovery Resource Center.
NPYLR7 ag = activates Aedes aegypti NPYLR7 receptor; HEK293T NPYLR7/Galpha15, GCaMP6s calcium fluorescence; activation, % at 10 µM; 0.15% of 270,000 active; in the data active = activation above about 40%;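 also: 0% = vehicle and 100% = reference agonist at the receptor; some compounds past the cut are filed as inactive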
NPYLR7 ag max-min = recorded beside NPYLR7 ag, whose call it bears; activation, %; measured here: Max-Min RFU normalised activation; some inactives read as strong as hits;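 span of the calcium signal over five minutes; 0% = vehicle and 100% = native peptide agonist; compound fluorescence can raise it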
The depositor's hits bear a star; & = joins results of further samples.

SMILES	NPYLR7 ag	NPYLR7 ag max-min
CCn1cc(C(CC(=O)NCCCN2CCOCC2)c2cccc(Cl)c2)c2ccccc21 (stereo unspecified)	5	15
Cc1nn(C)cc1S(=O)(=O)NCCN1CCOCC1	2	2
O=C(O)CSc1ccc2nnc(CCNC(=O)c3ccccc3)n2n1	-22	-27
O=C(c1ccc(Cl)c(Cl)c1)N1CCN(C(C(=O)N2CCOCC2)C2CCCC2)CC1 (stereo unspecified)	-2	-1
COCCCN(Cc1c(-c2ccccc2)noc1N1CCN(C)CC1)CC(O)CN1CCOCC1 (stereo unspecified)	3	4
Cc1ccc(NC(=O)C2(C)CCN2C(=O)CCc2cccs2)cc1 (stereo unspecified)	0	-2
CC(=NNC(=O)c1cccc([N+](=O)[O-])c1)c1ccccc1	-3	-8
C=CCn1c(=O)c2c(nc3n2CC(C)=NN3CCC)n(C)c1=O	5	3
O=C(c1cc(COc2ccc3c(c2)CCCC3)on1)N1CCCCO1	11	10
Cn1cc(CN2C[C@H]3CC[C@H]2C3)c(-c2ccc(Oc3ccccc3)cc2)n1	4	4
O=C(Nc1ccccc1)c1csc(COc2cc(Cl)ccc2Cl)n1	-3	6
CC1CN(C)C(C)C(/C=C(/C#N)C(N)=S)C1=O (stereo unspecified)	-11	-15
CCOc1cc(S(=O)(=O)Nc2ccc(Cl)cc2)ccc1F	0	-8
O=C(c1ccc(Cn2cnnn2)cc1)N1CCC2(CCCO2)CC1	7	5
O=C(COC(=O)CNC(=O)C12CC3CC(CC(C3)C1)C2)NC1CCS(=O)(=O)C1 (stereo unspecified)	1	1
O=c1c2cc(Cl)ccc2ncn1CC(O)COCc1cccs1 (stereo unspecified)	22	17
COCCn1c(-c2ccc([N+](=O)[O-])cc2)nc2nc3ccccc3nc21	-10	-16
CC(C)C(=O)Nc1ccc(SCC(N)=O)nn1	-2	-4
Cc1cc(C)nc(-n2nc(C(C)(C)C)cc2OCC(=O)NCc2ccco2)n1	0	6
Cc1cc(C(=O)CSc2nnc(C3CC3)n2C2CC2)c(C)n1-c1ncn[nH]1	7	11
O=C(CCN1C(=O)c2ccccc2C1=O)Nc1ccc(Br)cc1	7	4
Cn1nnc2c(N3CCN(S(=O)(=O)c4cccs4)CC3)ncnc21	0	5
CS(=O)(=O)CCOc1ccc(Cl)cc1NC(=O)/C=C/c1cccs1	6	6
O=C(Nc1ccn[nH]1)c1csc(-c2ccc(Cl)s2)n1	-11	-10
COC1CN(C(=O)c2cc(S(=O)(=O)N(C)C)ccc2Cl)C1	1	0
COc1ccc2c(C)nc(N3CCCC(C(=O)NC4C5CC6CC4CC(O)(C6)C5)C3)nc2c1 (stereo unspecified)	-1	-9
Fc1ccccc1C1CCN(Cc2nc(-c3ccccn3)no2)C1 (stereo unspecified)	-1	-6
CCCC(=O)OCC(O)CNC(Cc1ccccc1)c1nc(-c2ccc([N+](=O)[O-])cc2)no1 (stereo unspecified)	-8	-4
CN(Cc1cccc2ncccc12)C(=O)c1cccc(C2CCNC2)c1 (stereo unspecified)	1	-2
CC1CN(Cn2nc3n(c2=S)CCCCC3)C(C)CO1 (stereo unspecified)	0	5

Some of these compounds in order of SMILES length, smallest number first.
SMILES	NPYLR7 ag	NPYLR7 ag max-min
CC(C)C(=O)Nc1ccc(SCC(N)=O)nn1	-2	-4
CC1CN(Cn2nc3n(c2=S)CCCCC3)C(C)CO1 (stereo unspecified)	0	5
O=c1c2cc(Cl)ccc2ncn1CC(O)COCc1cccs1 (stereo unspecified)	22	17
Fc1ccccc1C1CCN(Cc2nc(-c3ccccn3)no2)C1 (stereo unspecified)	-1	-6
O=C(CCN1C(=O)c2ccccc2C1=O)Nc1ccc(Br)cc1	7	4
CN(Cc1cccc2ncccc12)C(=O)c1cccc(C2CCNC2)c1 (stereo unspecified)	1	-2
Cn1nnc2c(N3CCN(S(=O)(=O)c4cccs4)CC3)ncnc21	0	5
CS(=O)(=O)CCOc1ccc(Cl)cc1NC(=O)/C=C/c1cccs1	6	6
COCCn1c(-c2ccc([N+](=O)[O-])cc2)nc2nc3ccccc3nc21	-10	-16
Cc1cc(C(=O)CSc2nnc(C3CC3)n2C2CC2)c(C)n1-c1ncn[nH]1	7	11
O=C(COC(=O)CNC(=O)C12CC3CC(CC(C3)C1)C2)NC1CCS(=O)(=O)C1 (stereo unspecified)	1	1
COc1ccc2c(C)nc(N3CCCC(C(=O)NC4C5CC6CC4CC(O)(C6)C5)C3)nc2c1 (stereo unspecified)	-1	-9
CCCC(=O)OCC(O)CNC(Cc1ccccc1)c1nc(-c2ccc([N+](=O)[O-])cc2)no1 (stereo unspecified)	-8	-4

The listing continues.
SMILES	NPYLR7 ag	NPYLR7 ag max-min
CN(Cc1ccc(Cl)c(Cl)c1)C(=O)CCn1c(=O)oc2cc(S(N)(=O)=O)ccc21	2	0
c1ccc(-c2nc3c(N4CCOCC4)nccc3[nH]2)cc1	-5	-11
COc1ccc(NC(=O)CCN(Cc2ccco2)c2nc(-c3ccc(F)cc3)nc3ccccc23)cc1	0	2
COc1ccc(CCNC(=O)c2c(C)noc2-c2ccco2)cn1	-11	-10
COc1ccccc1NS(=O)(=O)c1cc(Br)ccc1Br	3	1
O=C(c1c(F)cnc(F)c1F)N1CCC(n2c(C(F)(F)F)nc3ccccc32)CC1	-4	-8
O=[N+]([O-])c1ccc(C=C2CCC(C=NN=Cc3cccc([N+](=O)[O-])c3)=C2N2CCOCC2)cc1	-5	-6
CCCS(=O)(=O)N[C@@H]1C[C@@H](C(=O)OC)N(C)C1	2	1
O=C(C1CC1)N(Cc1c(-c2ccc(F)cc2)noc1N1CCOCC1)CC1CCCO1 (stereo unspecified)	8	9
CCOC(=O)CCCSc1nnc(NC(=O)c2cc(OC)cc(OC)c2)s1	3	16
O=C(CCC1CCCCC1)NCCn1ncc2c(N3CCCCCC3)ncnc21	-1	-2
O=C1NCCN1CCNc1nc(NCc2ccccc2)nc2ccsc12	-4	-5
CC1=NN(Cc2cc(C)ccc2C)c2nc3c(c(=O)n(Cc4cc(C)ccc4C)c(=O)n3C)n2C1	6	5
COCCNC(=O)c1ccc(CSc2nc(N(C)C)cc(C(F)(F)F)n2)cc1	5	18
CN1C(=O)NC(=O)/C(=C\c2ccc(O)cc2)C1=O	-5	-8
Cc1ccc(NC(=O)CSc2nc3c(-c4ccccc4)c[nH]c3c(=O)n2C)cc1	-2	-5
COc1ccc(-c2nnc(SCc3c(F)cccc3Cl)n2C2CCCCC2)cc1	-1	-1
CCOC(=O)C1CCCN(C(=O)c2cc(-c3ccc(OC)cc3OC)nn2-c2ccc([N+](=O)[O-])cc2)C1 (stereo unspecified)	0	7
CCn1c(-c2c(-c3ccccc3)ncn2Cc2cc(C)[nH]n2)nc2ccccc21	13	3
Cc1cnn(-c2ccc(C(=O)N3CCCC3C(C)C)cc2)c1 (stereo unspecified)	2	3
Cc1ccc(-c2nnc(CNCCSc3nnnn3C)o2)n1C	24	13
COc1ccc(S(=O)(=O)NCC2CCCN(Cc3ccc(O)cc3)C2)cc1 (stereo unspecified)	6	6
CC(SCc1cc(Cl)c2c(c1)OCCO2)C(=O)O (stereo unspecified)	-1	-1
O=c1c2cnc3nc(-c4cccnc4)nn3c2ccn1C1CCCCCC1	6	12
CN1C(=O)C(CC(=O)NCc2cnn(C)c2)(Cc2ccccc2)c2ccccc21 (stereo unspecified)	2&7	0&2
O=C(CCc1c[nH]c2ccccc12)NCCn1ncc2ccccc2c1=O	2	-8
O=C1C2C3C=CC(C4CC34)C2C(=O)N1c1ccc(F)cc1 (stereo unspecified)	7	2
CCn1c(SCc2ccccc2OC(F)F)nnc1-c1c2c(nc3ccccc13)CCC2	-2	1
O=C(CCc1ccccc1)N1CCC(c2nc(-c3ccc(C(F)(F)F)cc3)no2)CC1	-6	-9
CN(C)CCCN(C(=O)c1cccc([N+](=O)[O-])c1)c1nc2c(Cl)cccc2s1	3	1

By substructure: those above containing bromine
SMILES	NPYLR7 ag	NPYLR7 ag max-min
O=C(CCN1C(=O)c2ccccc2C1=O)Nc1ccc(Br)cc1	7	4
COc1ccccc1NS(=O)(=O)c1cc(Br)ccc1Br	3	1

(next part)
SMILES	NPYLR7 ag	NPYLR7 ag max-min
CCCNC(=O)Cn1nc2c(c1NC(=O)c1ccc(C)c(C)c1)CSC2	-9	-11
Cc1ccc(C2c3c(n(C)c(=O)n(C)c3=O)N=C3COC(=O)C32)cc1 (stereo unspecified)	22	18
COC(=O)c1ccccc1-c1ccc(NC(=O)C2C3CC4OC(=O)C2C4C3)cc1 (stereo unspecified)	8	6
Cc1noc(C)c1C1CCCN1Cc1c(-c2ccccc2)nc2ncccn12 (stereo unspecified)	1	0
c1ccc(-n2nnnc2SCCNc2nc3ccccc3[nH]2)cc1	2	-3
COc1ccc(/C(C)=N\OCC(=O)N2CCOC(COCc3ccc(F)cc3Cl)C2)cc1 (stereo unspecified)	3	15
CCOC(=O)C1CCN(C(=O)c2ccc(CSc3nc(COC)cc(N4CCN(C)CC4)n3)o2)CC1	19	26
OCC1CCCN(CCNC2CCN(c3ccccc3Cl)CC2)C1 (stereo unspecified)	1	-1
COc1ccc(C2=Nc3ncnn3C(c3ccc(Cl)cc3)C2)cc1OC (stereo unspecified)	22	34
CN(C)c1ccc(C(=O)NC2CCCN(Cc3ccc(Cl)cc3)C2)cc1 (stereo unspecified)	0	-2
COc1ccc2c(c1)CC(c1nc(Cc3ccc(F)cc3)no1)CO2 (stereo unspecified)	0	-3
COCCc1nc2ccc(C(=O)NCc3scnc3-c3ccccc3)cc2o1	5	3
COc1cccc(Oc2ccc(C(F)(F)F)cc2NC(C)=O)c1	-2	-1
CC(NC(=O)CSc1nnc(-c2ccc(Cl)cc2)o1)C1CC2CCC1C2 (stereo unspecified)	7	3
CC(OC(=O)CN(C)c1ccc(C#N)cn1)C(=O)Nc1c(F)cccc1F (stereo unspecified)	0	4
CCCC(=O)C1=C(c2ccc(OC)cc2)N(C(=O)CCC)n2c(CC)nnc2S1	4	3
CCS(=O)(=O)Oc1ccc(CN(CCOC)C(=O)Nc2ccccc2Br)cc1	-5	0
COc1cc(OC)c(OC)cc1C=NNc1ncc(Cl)cc1Cl	-2	-6
O=C(CC1C=CCC1)Nc1cccc(COc2ccc3c(c2)OCO3)c1 (stereo unspecified)	13	11
Cc1ccc(-c2nnc(SCCCC(=O)N3CCN(c4ccccc4F)CC3)n2-c2ccc(C)cc2)cc1	-11	-6
CN(Cc1ccc(N(C)C)cc1)C(=O)C1CCN(S(=O)(=O)c2ccc3c(c2)OCCCO3)CC1	0	-1
C=CCNC(=O)CN(c1ccc(C)cc1)S(=O)(=O)c1ccc(OC)c(OC)c1	16	19
COc1ccc(-c2cnn(C(C)(C)C(=O)Nc3cc(C(C)(C)C)nn3C)c2)cc1OC	7	3
C=CCC(O)(CC=C)c1ccc(CN(CCCOC)Cc2ccc(C)cc2)o1	-6	-2
O=C1C=CC=C2C3CC(CC12)CN(c1nc(Cl)nc(NCc2ccco2)n1)C3 (stereo unspecified)	7	6
Cc1cc(F)ccc1S(=O)(=O)N1CCC2(CCCNC2)C1 (stereo unspecified)	1	0
O=C1NC(=O)C2NC=NC2N1 (stereo unspecified)	-2	-6
COC(=O)c1cc(OC)cc(C(=O)N2CCCC3(CC2)CNC(=O)O3)c1 (stereo unspecified)	3	-3
COc1ccc(CC(=O)Nc2cccc(C3NC(=S)N(C)C(C)=C3C(=O)OCC(C)C)c2)cc1 (stereo unspecified)	19	24
Cn1nc(C(C)(C)C)cc1C(=O)Nc1ccc2nc(-c3cccs3)nn2c1	3	-9
Cc1nc(S(=O)(=O)Oc2ccccc2C(F)(F)F)cn1C	1	1
C=CCN(Cc1ccccc1)C(=O)c1cnn2c1[nH]c(=O)c1ccccc12	18	15
CC(=O)N[C@@H]1c2ccccc2C2(CCN(C(=O)c3n[nH]c4ccccc34)CC2)[C@H]1OCc1ccccc1	10	1
CC(C)c1ccc(CC(=O)N2CCC2(C)C(=O)N2CCCCC2)cc1 (stereo unspecified)	5	3
C=CCN(Cc1csc(COc2cccc(Cl)c2)n1)C(=O)c1cccs1	1	7
Cc1ccc(OCc2cc(C(=O)NCc3cc4ccccc4[nH]3)no2)cc1C	12	0
O=C(O)c1csc(-c2ccc(Br)s2)n1	5	1
CCOc1ccc(NC(=O)C2CC(=O)N(Cc3ccc(OC)cc3)C(=Nc3ccccc3)S2)cc1 (stereo unspecified)	1	0
COc1ccccc1C(=O)N[C@@H]1c2ccccc2C2(CCN(C(=O)c3cccc(C)n3)CC2)[C@H]1OC	-2	-6
S=C(NCCN1CCOCC1)NNC(=S)NC1CCCCC1	17	9
COc1cc(/C=C2\SC(=S)N(C(C(=O)O)C(C)C)C2=O)ccc1O (stereo unspecified)	30	25
CC(C)(C)OC(=O)N1CCC(c2nc(-c3ccncc3)n[nH]2)CC1	-6	-12
COc1ccc(C(=O)N2Cc3ccccc3CC2C(N)=O)cn1 (stereo unspecified)	12	9
O=C(CNC1CC1)N1CCN(c2ccc(-c3ccc(Cl)cc3Cl)nn2)CC1	22	16
COC(=O)c1c(NC(=O)c2c(-c3ccccc3Cl)noc2C)sc2c1C(C(=O)OC)CC2 (stereo unspecified)	-9	-14
CSCCC(=O)Nc1ccc2[nH]cc(CCN3CCN(c4cccc(C(F)(F)F)c4)CC3)c2c1	2	10
CN(C)CC1(O)CCN(C(=O)COc2ccc3c(c2)OCO3)C1 (stereo unspecified)	13	10
FC(F)(F)c1cc(Cl)c2nc(-c3cccc(Br)c3)cn2c1	0	-4
CC(=O)N1CCN(C(=O)c2cc(-c3ccc(F)cc3)nc3cc(C(C)(C)C)nn23)CC1	9	15
Cc1ccc(C(C)NC(=O)N(Cc2ccc(O)cc2)CC2CC2)o1 (stereo unspecified)	3	1

New compounds follow:
SMILES	NPYLR7 ag	NPYLR7 ag max-min
Cc1noc(-c2ccncc2)c1C(=O)N1CCCC(CCc2ccc(C(C)(C)C)cc2)C1 (stereo unspecified)	-1	12
Cc1ccc(N(CC(=O)NCC2CCCO2)S(=O)(=O)c2ccc(F)cc2)cc1 (stereo unspecified)	0	-1
COc1ccccc1C1C(C(=O)OCC(C)C)=C(C)NC2=C1C(=O)CC(c1ccccc1)C2 (stereo unspecified)	-5	-6
Cc1ccccc1C1=NOC2CN(c3cnc4ccccc4n3)CC12 (stereo unspecified)	-1	-3

Some of the compounds tested. The share of hits here may be higher or lower than overall.
